# Screening data (PubChem BioAssay)
# Rango-impB inh: prevents formation of the Rango-importin beta complex. 0.031% of 340,000 active. Rango CFP/YFP FRET sensor + importin beta, 45 min. Potency, µM (highest dose often 92.2 µM), without a hit: at the top dose inhibition of complex formation. Q14974; active = rising FRET ratio curve, often small or poorly fitted; inconclusive = mostly compound fluorescence or quenching in the first reads; inactive = flat curves in all reads;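 note: potency is the fitted concentration of half-maximal effect; 0% = DMSO wells and 100% = buffer wells lacking importin beta; nearly all actives have a fitted effect of over 15% in size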
# Target sequence (Q14974 whole entry, looked up): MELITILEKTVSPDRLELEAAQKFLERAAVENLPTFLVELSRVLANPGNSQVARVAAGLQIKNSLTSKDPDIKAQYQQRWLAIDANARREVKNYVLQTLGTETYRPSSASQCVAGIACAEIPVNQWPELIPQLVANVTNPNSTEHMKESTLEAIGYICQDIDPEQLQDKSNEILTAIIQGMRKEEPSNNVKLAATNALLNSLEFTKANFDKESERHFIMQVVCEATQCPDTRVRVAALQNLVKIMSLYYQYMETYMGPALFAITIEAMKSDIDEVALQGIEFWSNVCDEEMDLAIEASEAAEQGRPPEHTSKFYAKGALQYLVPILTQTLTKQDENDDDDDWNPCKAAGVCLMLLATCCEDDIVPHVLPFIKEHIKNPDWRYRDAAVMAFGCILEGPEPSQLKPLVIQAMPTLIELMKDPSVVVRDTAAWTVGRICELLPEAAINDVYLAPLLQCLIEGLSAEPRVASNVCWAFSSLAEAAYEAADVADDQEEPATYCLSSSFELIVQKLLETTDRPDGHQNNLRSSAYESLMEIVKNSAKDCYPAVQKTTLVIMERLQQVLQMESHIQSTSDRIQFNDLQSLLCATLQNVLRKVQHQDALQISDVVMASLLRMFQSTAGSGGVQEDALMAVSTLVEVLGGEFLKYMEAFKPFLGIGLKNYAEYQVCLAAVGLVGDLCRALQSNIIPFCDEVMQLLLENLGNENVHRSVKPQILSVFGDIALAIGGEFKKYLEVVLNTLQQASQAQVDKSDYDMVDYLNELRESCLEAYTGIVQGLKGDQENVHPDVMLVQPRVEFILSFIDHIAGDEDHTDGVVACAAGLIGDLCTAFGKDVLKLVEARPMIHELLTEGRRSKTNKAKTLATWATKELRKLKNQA
#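 FRET biosensor (snurportin 1 IBB flanked by EYFP and cerulean), 50 nM, with compound 5 min, then 0.125 microM importin beta in PBS, 1 mM DTT, 0.02% Tween-20, 0.1% BSA. CFP/YFP ratio read after 45 min at room temperature; pre-read flags interference.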
# GLA inh pH 4.5: blocks human alpha-galactosidase A at pH 4.5. P06280. purified enzyme, 4-MU-alpha-Gal fluorescence, pH 4.5. activity change, negative = inhibition, % at 105 µM. 230,000 tested, under 10 active; inconclusive = small, poorly fitted or top-dose-only inhibition, or a rising curve; inactive = flat fitted curve, though single readings scatter; no compound was filed as active;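 note: 0% = full activity with enzyme and -100% = basal without enzyme; dose as in the result columns while the protocol names 77 µM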
# miR-21 reporter: miR-21 reporter, rising signal | HeLa miR-21 FLuc reporter, luciferase, 48 h | AID 2288 | Potency, µM (titrated, usually from 38.3 µM), inactives show at the highest dose reporter change, positive = more light | 340,000 tested, under 10 active; active = well fitted rising curve with a large enough effect; inconclusive = small, poorly fitted or top-dose-only effect; inactive = no such curve, though single readings can be large or run the other way;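 note: % of control where 0% means no effect; miR-21 action dims this reporter so a rising signal means less miR-21 action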
#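 HeLa cells endogenously expressing miR-21, stably carrying CMV-driven firefly luciferase with a downstream miR-21 binding site, 2000 cells/well. Titrations up to approximately 40 uM, 48 hours; luciferase luminescence read.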
# Rango release inh: inhibitors of RanGTP-induced Rango-importin beta complex dissociation; AID 540253; 0.071% of 340,000 active; Biochemical FRET Rango-importin beta, RanGTP-induced dissociation; Potency, µM (highest dose often 46.1 µM), inactives show top-dose activity change, negative = inhibition; active means falling FRET ratio curve, often poorly fitted, with flat reads before Ran was added; inconclusive means other falling curves, or compound fluorescence or quenching; inactive means flat or rising ratio curve;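 note: potency is the fitted concentration of half-maximal effect; % of control where 0% means no effect; nearly all actives have a fitted effect of over 45% in size; -100% = wells without RanGTP and RCC1; the record marks most hits as doubtful in a second field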
#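 Recombinant Rango FRET biosensor (EYFP–snurportin 1 IBB–cerulean CFP10) at 0.1 uM premixed with 0.25 uM importin beta in PBS, 1 mM DTT, 0.02% Tween-20, 0.1% BSA. Compound added 5 min; RanGTP-RCC1 (0.6 uM Ran, 2 mM GTP, 0.2 uM RCC1) then triggers release, read at 45 min.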
# The depositor's hits bear a star; ? = inconclusive; . = not tested or not shown; & = joins results of further samples; [ ] = another dose, or the depositor's remark. This is a subset. The share of hits here may be higher or lower than overall.
SMILES,Rango-impB inh,GLA inh pH 4.5,miR-21 reporter,Rango release inh
C#Cc1ccc([C@@H]2C=C(C(=O)N3CCOCC3)O[C@H](OCC)[C@H]2CCCO)cc1,0.4%,-0.2,-0.4%,13.3%
CCc1c(C(C)S(=O)(=O)c2ccc(C)cc2)[nH]c(=O)n1-c1ccc(OC(F)(F)F)cc1 (stereo unspecified),5.2%,-2.6,7.4%,30.3%
Cc1ccc(/C(O)=C2\C(=O)C(=O)N(C)C2c2ccc([N+](=O)[O-])cc2)cc1 (stereo unspecified),-5.8%,.,-0.6%,-0.3%
CCOC(=O)C(C(C)=O)=C1SC2CS(=O)(=O)CC2S1 (stereo unspecified),2.3%,1.0,-5.3%,5.1%
COc1ccc(-c2oc3ccccc3c2C(=O)OCc2ccccc2)cc1,0.2%,.,-25.9%,-7.1%
N=C1c2ccccc2CN1NC(=O)c1cccc(S(=O)(=O)N2CCOCC2)c1,-0.4%,1.4,-4.9%,0.0%
COc1ccc(CN2CC(=O)N3[C@H]4c5ccc(OC)cc5OC[C@@H]4[C@H](c4ccccc4)[C@]3(C)C2=O)cc1,0.1%,.,.,-15.6%
CCCn1c(NC(=O)c2ccc(Cl)c(S(=O)(=O)N3CCCC3)c2)nc2ccccc21,-1.5%,-15.9,?,-4.7%
Cc1ccc(-c2nnc(SCC(=O)Nc3ccc(S(=O)(=O)N4CCCCCC4)cc3)o2)cc1,-1.1%,7.3,-3.1%,26.5%
CCOc1ccc(NS(=O)(=O)c2ccc(C(=O)NCC3(N(C)C)CCCCC3)cc2)cc1,-4.1%,.,.,-9.7%
COc1ccccc1CNCCS(=O)(=O)NN1CCOCC1,4.9%,.,.,0.2%
O=C(O)CCCCNCc1ccccc1,-2.0%,4.6,1.8%,-13.4%

# Arranged by length of the SMILES (ascending): six of the compounds above
SMILES,Rango-impB inh,GLA inh pH 4.5,miR-21 reporter,Rango release inh
O=C(O)CCCCNCc1ccccc1,-2.0%,4.6,1.8%,-13.4%
COc1ccccc1CNCCS(=O)(=O)NN1CCOCC1,4.9%,.,.,0.2%
COc1ccc(-c2oc3ccccc3c2C(=O)OCc2ccccc2)cc1,0.2%,.,-25.9%,-7.1%
N=C1c2ccccc2CN1NC(=O)c1cccc(S(=O)(=O)N2CCOCC2)c1,-0.4%,1.4,-4.9%,0.0%
C#Cc1ccc([C@@H]2C=C(C(=O)N3CCOCC3)O[C@H](OCC)[C@H]2CCCO)cc1,0.4%,-0.2,-0.4%,13.3%
COc1ccc(CN2CC(=O)N3[C@H]4c5ccc(OC)cc5OC[C@@H]4[C@H](c4ccccc4)[C@]3(C)C2=O)cc1,0.1%,.,.,-15.6%

# Other structures
SMILES,Rango-impB inh,GLA inh pH 4.5,miR-21 reporter,Rango release inh
CC(=O)C1CCC2C3CC(C)=C4CC(O)CCC4(C)C3CCC12C (stereo unspecified),-2.6%,.,.,11.1%
CS(=O)(=O)N1CCN(C2C3CC4CC(C3)CC2C4)CC1 (stereo unspecified),0.0%,-14.5,-1.5%,-0.8%
CC(C)(C)c1ccc(C2C(C#N)=C(N)Oc3n[nH]c(-c4cccnc4)c32)cc1 (stereo unspecified),-2.8%,5.8,-2.5%,1.5%
O=c1c2nncn2c2cc(C(F)(F)F)ccc2n1CCNc1ncc(C(F)(F)F)cc1Cl,9.4%,-4.4,2.8%,3.7%
O=C(CSc1nnc(Cc2ccccc2)o1)Nc1ccc(Br)cn1,-3.4%,-6.2,1.8%,15.9%
CC(C)C12CN3CC(C(C)C)(CN(C1)C31C(=O)Nc3ccccc31)C2=O (stereo unspecified),3.2%,-1.6,3.8%,8.9%
CCOC(=O)CC1C(=O)NCCN1S(=O)(=O)c1ccc(OC)cc1 (stereo unspecified),-1.1%,3.9,-0.2%,24.4%
Cc1cc(-c2nnc(CCC(=O)NC(C)(C)C34CC5CC(CC(C5)C3)C4)o2)no1,-4.9%,.,.,0.4%
CCN(CC)S(=O)(=O)c1ccc(C(=O)Nc2cc(S(=O)(=O)N3CCOCC3)ccc2N2CCN(C)CC2)cc1,-4.2%,.,.,-0.9%
COc1ccc(NC(=S)NC(=O)/C=C/c2ccco2)cc1,6.7%,1.9[21.1 µM],-0.1%,-9.5%
CCOC(=O)n1c(=O)n(Cc2ccc(Cl)c(Cl)c2)c2ccccc21,-0.7%,-5.5,6.8%,0.0%
Clc1ccccc1NCSC1=NCCS1,6.0%,.,.,15.4%

# Entries of single compounds as entered above. Values in the order: Rango-impB inh, GLA inh pH 4.5, miR-21 reporter, Rango release inh
# `COc1ccc(NC(=S)NC(=O)/C=C/c2ccco2)cc1` reads 6.7%, 1.9[21.1 µM], -0.1%, -9.5%
# `CC(=O)C1CCC2C3CC(C)=C4CC(O)CCC4(C)C3CCC12C` (stereo unspecified) reads -2.6%, ., ., 11.1%

# Continuation.
SMILES,Rango-impB inh,GLA inh pH 4.5,miR-21 reporter,Rango release inh
COc1ccccc1-c1cc(C(=O)Nc2cccnc2Cl)no1,-0.8%,.,-3.2%,-0.7%
Cc1ccc(/C=N/Nc2nc3ccccc3s2)o1,0.4%,-2.4,-20.9%,3.8%
Cc1cc(C)c(S(=O)(=O)N(C)Cc2cnn(C)c2)c(C)c1,0.3%,-1.7,0.5%,20.1%
Cc1ccc(N2C(=O)CC(Sc3ccccc3C(=O)O)C2=O)cc1C (stereo unspecified),-4.4%,0.8,-3.6%,13.9%
O=C(NCc1cccnc1)c1c(F)c(F)c(F)c(F)c1F,-2.6%,6.2,-3.8%,0.2%
O=C(O)c1ccccc1C(=O)Nc1n[nH]c(=S)s1,3.2%,-4.2,-1.7%,3.9%
CC(=O)Nc1ccc(S(=O)(=O)NCC(=O)OCC(=O)N2CCCCCC2)cc1,1.6%,.,.,22.2%
CCc1ccc(NC(=O)c2[nH]c(C)c(C(C)=O)c2C)cc1,-5.2%,.,-29.6%,10.2%
Nc1nc(SCC(=O)Nc2ccc3c(c2)CCC3)n[nH]1,-0.1%,4.6,-7.7%,0.0%
Clc1ccccc1-c1nnc2sc(-c3ccc4c(c3)OCO4)nn12,4.9%,0.5,-5.9%,-9.7%
COc1cccc(N2C(=O)CC(NNc3nc4ccccc4s3)C2=O)c1 (stereo unspecified),0.5%,-1.4,0.9%,14.6%
Cc1cc(C)c(NC(=O)CSCc2nc3sc(C)c(C)c3c(=O)[nH]2)c(Cl)c1,?,.,.,-2.2%

# Brought forward from above: four compounds; new compounds follow.
SMILES,Rango-impB inh,GLA inh pH 4.5,miR-21 reporter,Rango release inh
Nc1nc(SCC(=O)Nc2ccc3c(c2)CCC3)n[nH]1,-0.1%,4.6,-7.7%,0.0%
Clc1ccccc1-c1nnc2sc(-c3ccc4c(c3)OCO4)nn12,4.9%,0.5,-5.9%,-9.7%
COc1cccc(N2C(=O)CC(NNc3nc4ccccc4s3)C2=O)c1 (stereo unspecified),0.5%,-1.4,0.9%,14.6%
Cc1cc(C)c(NC(=O)CSCc2nc3sc(C)c(C)c3c(=O)[nH]2)c(Cl)c1,?,.,.,-2.2%
COc1ccc(CCN2CC(C(=O)OCC(=O)N(C)CC(=O)Nc3ccccc3Cl)CC2=O)cc1OC (stereo unspecified),-2.6%,.,.,-2.2%
COCC(=O)NNC(=S)Nc1cccc(C)c1C,-0.5%,2.5,0.7%,-13.0%
COc1ccccc1N=Cc1c(C)[nH]n(-c2ccc(C)cc2C)c1=O,0.2%,0.8,-0.1%,5.6%
C[C@H](N)c1nnc(SCc2ccc(Cl)cc2Cl)o1,1.1%,3.3,-1.1%,14.2%
COc1ccc(C2=NOC(C(=O)NCc3ccc(F)cc3)C2)cc1OC (stereo unspecified),4.0%,-3.7,21.9%,-11.8%
O=[N+]([O-])c1ccc(CSc2nc3ncc(Br)cc3[nH]2)cc1,-0.1%,5.9,0.4%,-1.6%
COc1ccc(NC(=O)CN(C)C(=O)c2ccc(OCc3ccccc3)c(OC)c2)cc1,1.0%,.,.,-0.6%
Cc1ccc(N2C(=O)c3ccccc3C2Nc2ccccc2F)nc1 (stereo unspecified),-4.5%,-6.6,-11.3%,-4.9%
Cc1cccc(C)c1NC(=S)NCc1ccncc1,-1.8%,-4.9,-4.5%,-9.4%
Cc1noc(C)c1COC(=O)CCOc1ccccc1,1.2%,-2.9,-5.1%,0.4%
COC(=O)c1cn(CC(=O)N2CCCCCC2)c2ccccc12,1.3%,-5.7,-10.7%,-26.0%
Cc1ccc(-n2[nH]c(=O)c3cccnc32)cc1,1.4%,7.9,-9.2%,9.0%
O=C(NCCCN1CCOCC1)c1ccc2c(c1)N(Cc1ccc(F)cc1)CCS2,0.1%,.,0.7%,13.2%
O=C(NNC(=O)c1ccc(-n2cncn2)c([N+](=O)[O-])c1)c1ccc(Cl)cc1,1.1%,.,.,4.4%
COc1ccc(OCC(=O)NCCCn2ccnc2)cc1,-0.8%,-6.5,-0.7%,-0.2%
COc1ccc(-n2c(SCC(=O)Nc3sc4c(c3C#N)CCCC4)nnc2-c2ccc(O)cc2)cc1,-0.6%,-1.7,6.9%,0.0%
O=S(=O)(Nc1cc(Sc2cccc3cccnc23)c(O)c2ccccc12)c1ccccc1,.,-26.7,?,.
CCOc1ccc(OCC)c(NS(=O)(=O)c2cn(C)cn2)c1,0.1%,.,-3.3%,-5.3%
Cc1nnc(SCC(=O)Nc2nc3c(s2)CC(C)CC3)s1 (stereo unspecified),0.9%,2.1,-13.0%,-0.6%
CC(C)(C)C(=O)Nc1nc(-c2ccc3c(c2)OCO3)cs1,-1.3%,-6.2,-0.5%,-0.1%
O=c1c2ccccc2nc(COc2ccccc2)n1/N=C/c1cc([N+](=O)[O-])ccc1O,?,-12.1,-23.5%,?
O=S(=O)(c1ccc(-c2ccon2)s1)N1CCN(CCN2CCOCC2)CC1,4.9%,-0.7,-2.2%,-7.2%
O=C(/C=C/c1ccco1)Nc1ccc(CN2CCOCC2)cc1,2.5%,3.2,-26.1%,14.5%
Cc1cc(NC(=O)/C=C/c2ccccc2)no1,5.2%,-3.7,-40.6%,11.2%
CC1(C)Cc2c(sc3nnn(Cc4ccc(Cl)cc4)c(=O)c23)CO1,-0.2%,-10.2,-11.0%,7.3%
CC(C)(C)N(Cc1ccccc1)C(=O)CSc1ncn[nH]1,-1.0%,.,10.4%,11.2%
N#Cc1c(N)n(CCOC(=O)c2ccc(Cl)cc2)c2nc3ccccc3nc12,?,0.8,-0.4%,?
N#CC1(NC(=O)CSc2nnc(COc3ccccc3F)n2N)CCCCC1,-0.9%,.,.,16.5%
CSc1ccc(C(=O)C2CCCN(Cc3cccn3-c3cccnc3)C2)cc1 (stereo unspecified),3.8%,0.5,12.2%,-7.8%
CCOC(=O)C1=C(C)NC(C)=C(C(=O)OCC)C1C1=COCCO1,0.9%,-9.3,-3.2%,?
CC(C)c1ccccc1NC(=O)Nc1ccc(F)cc1F,-0.2%,-0.8,4.8%,-7.6%
Cn1nc(C(=O)Nc2nc3ccc(S(C)(=O)=O)cc3s2)ccc1=O,0.6%,6.1,-1.8%,16.0%
Cc1ccc(/C=N/NC(=O)CCSc2ccccc2)cc1,1.1%,-7.7,-17.6%,1.3%
O=C(O)c1ccc(N/N=C/c2ccnc3ccccc23)cc1,?,-23.9,-76.4%,?
CC(C)n1cc(C(=O)N2CCCC(Nc3ccc(F)c(F)c3)C2)cn1 (stereo unspecified),3.6%,.,-8.0%,-7.4%
CCOc1ccc(N(CC(=O)NCc2ccc(OC)cc2)S(=O)(=O)c2c(C)[nH]c(=O)[nH]c2=O)cc1,0.6%,.,-0.9%&-1.2%,9.5%
O=c1cc2n(c(=O)[nH]1)CCC1=C2CCCC1,-1.2%,3.4,-7.8%,-7.1%
Nc1nonc1-n1nnc(C(=O)N/N=C/c2ccccc2F)c1-c1cccs1,0.5%,.,1.9%,-10.5%
Cc1c(NC(=O)c2ccc(Cl)nc2)cccc1-c1nc2cccnc2s1,-0.9%,2.2,?,-11.4%
Cc1ccc(Cn2c(Sc3nnc(C)s3)nc3c2c(=O)[nH]c(=O)n3C)cc1,1.1%,4.0,-29.9%,13.4%
